2A StopGo: High Throughput Screening for Foot and Mouth Disease Virus Antivirals; human cells with a luciferase reporter of 2A StopGo recoding; control for the full effect not named in the record; Potency, µM (highest dose often 57.9 µM), without a hit: top-dose signal change, negative = less light; 410,000 compounds, 1.2% hits; active = well fitted falling curve with a large enough effect; inconclusive = small, poorly fitted or top-dose-only effect; inactive = no such curve, though single readings can be large or run the other way; tested in HEK293T cells; also: % is scaled to controls: 0 for no effect and ±100 for the full control effect; nearly all actives have a fitted effect of over 45% in size; luciferase light after 4 h
Marburg entry inh: qHTS for inhibitors of binding or entry into cells for Marburg Virus. Marburg virus pseudotyped entry inhibition, cell reporter; control for the full effect not named in the record; about a third of the inactives were read at about 46 µM. Potency, µM (titrated, usually from 37.8 µM), without a hit: at the top dose activity change, negative = inhibition, most hits filed as inhibitors. 300,000 compounds, 1.8% hits; active = well fitted inhibition curve with a large enough effect; inconclusive = small, poorly fitted or top-dose-only effect, or effect the other way; inactive = flat fitted curve, though single readings scatter; tested in HEK293 cells; about a fifth of its hits are not listed in these tables; also: % is scaled to controls: 0 for no effect and ±100 for the full control effect; luciferase read-out
LASV entry inh: qHTS for Inhibitors of binding or entry into cells for Lassa Virus; Lassa virus pseudotype entry inhibition, cell reporter; control for the full effect not named in the record; Potency, µM (top dose mostly 37.9 µM), for the others: at the highest dose activity change, negative = inhibition, most hits filed as inhibitors; 300,000 compounds, 1.2% hits; active means well fitted inhibition curve with a large enough effect; inconclusive means small, poorly fitted or top-dose-only effect, or effect the other way; inactive means flat fitted curve, though single readings scatter; tested in HEK293 cells; also: % is scaled to controls: 0 for no effect and ±100 for the full control effect; nearly all actives have a fitted effect of over 50% in size; luciferase read-out
SARS PLpro yeast: qHTS of Yeast-based Assay for SARS-CoV PLP | 330,000 compounds, 0.19% hits | S. cerevisiae expressing SARS-CoV PLpro, growth rescue; control for the full effect not named in the record | Potency, µM (series often up to 32.9 µM), for the others: at the top dose activity, positive = growth rescue; also: 0% is about no effect; nearly all actives have a fitted effect of over 55% in size; growth read by luminescence after 48 h
Cruzain noTriton: qHTS Assay for Promiscuous and Specific Inhibitors of Cruzain (without detergent). purified cruzain, Z-FR-AMC fluorescence, no detergent. Potency, µM, for inactives: max response, negative = inhibition, most hits filed as inhibitors. 200,000 compounds, 2.3% hits. AID 1476, 2009; active = well fitted curve in the direction sought with a large enough effect; inconclusive = small, poorly fitted or top-dose-only effect, or another doubt; inactive = no such curve, though single readings can be large; an effect the other way counts as inactive or inconclusive;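 also: plate controls were enzyme without inhibitor for no effect and buffer without enzyme for full effect; nearly all actives have a fitted effect of over 40% in size; top concentration of the series not given in the record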
Target sequence (P25779 123-467 limits assumed): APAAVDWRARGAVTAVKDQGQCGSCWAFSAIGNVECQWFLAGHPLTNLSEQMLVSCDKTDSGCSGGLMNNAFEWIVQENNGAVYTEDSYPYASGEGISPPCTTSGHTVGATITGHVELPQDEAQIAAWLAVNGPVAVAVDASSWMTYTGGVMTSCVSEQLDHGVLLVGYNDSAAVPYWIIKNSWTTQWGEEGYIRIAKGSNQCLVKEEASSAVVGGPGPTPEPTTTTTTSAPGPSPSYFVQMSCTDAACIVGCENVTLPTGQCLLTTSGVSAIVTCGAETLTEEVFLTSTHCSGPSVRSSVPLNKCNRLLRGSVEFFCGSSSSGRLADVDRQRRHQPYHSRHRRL
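Purified cruzain at 1.5 nM, pre-incubated 15 min with compound at room temperature in 100 mM sodium acetate pH 5.5, 5 mM DTT, 0.00005% Triton X-100. Reaction started with 2 uM Z-FR-AMC; AMC fluorescence increase over 60 s gives rate.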
RE007 growth inh: qHTS Assay for Inhibitors of the HIV-1 protein Vpr; 360,000 compounds, 0.21% hits; Potency, µM (top dose mostly 92.2 µM), for inactives: at the top dose activity change, negative = less growth; S. pombe RE007 Vpr strain, BacTiter-Glo ATP luminescence, 24 h; control for the full effect not named in the record; active = well fitted falling curve with a large enough effect; inconclusive = small, poorly fitted or top-dose-only effect; inactive = no such curve, though single readings can be large or run the other way;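 also: % is scaled to controls: 0 for no effect and ±100 for the full control effect; nearly all actives have a fitted effect of over 50% in size; the assay follows cell death caused by Vpr and the record does not say whether a fall means rescue or toxicity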
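Fission yeast RE007 carrying one integrated HIV-1 vpr copy, seeded at OD 0.01 in PMG+AL medium with 23 nL pinned compound. Grown 24 h at 30 degrees; viability read by BacTiter-Glo luminescence after 5 min.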
Cruzain Triton: qHTS Assay for Promiscuous and Specific Inhibitors of Cruzain (with detergent). Potency, µM, for the others: max response, negative = inhibition, hits mostly inhibitors. Cruzipain (Trypanosoma cruzi), P25779. 200,000 compounds, 0.43% hits. AID 1478, 2009. purified cruzain, Z-FR-AMC fluorescence, 0.01% Triton; active = well fitted curve in the direction sought with a large enough effect; inconclusive = small, poorly fitted or top-dose-only effect, or another doubt; inactive = no such curve, though single readings can be large; an effect the other way counts as inactive or inconclusive;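 also: plate controls were neutral wells for no effect and buffer without enzyme for full effect; nearly all actives have a fitted effect of over 40% in size; top concentration of the series not given in the record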
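In this qHTS format, compounds are incubated with 1.5 nM cruzain for 15 min at room temperature before 2 uM Z-FR-AMC is added. Release of AMC is followed at 360/450 nm, and progress is taken as the 60 s fluorescence difference.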
NS1 function inh: qHTS Assay for Inhibitors of Influenza NS1 Protein Function | Potency, µM (titrated, usually from 46.1 µM), for the others: top-dose activity, positive = more growth | AID 2326, 2010 | S. cerevisiae slowed by influenza A NS1, growth recovery by OD600 | 270,000 compounds, 0.4% hits; also: actives are rising curves; nearly all actives have a fitted effect of over 50% in size
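Read-out: OD600 growth recovery of NS1-expressing budding yeast. Cells grown overnight at 30C in -URA glucose medium, washed, resuspended and diluted 1:100 in 2% galactose assay medium, pH 6.0. Same strain lacking NS1 served as positive control.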
Active calls of the source: *; ? = inconclusive; . = no result given; & = joins results of further samples; [ ] = another dose, or the depositor's remark. Unless noted, calls follow the shape of the dose curve; as a rule, active means well fitted rising curve with a large enough effect; inconclusive means small, poorly fitted or top-dose-only effect; inactive means no such curve, though single readings can be large or run the other way. Potency is read from the fitted curve at half-maximal effect.

SMILES	2A StopGo	Marburg entry inh	LASV entry inh	SARS PLpro yeast	Cruzain noTriton	RE007 growth inh	Cruzain Triton	NS1 function inh
COC(=O)C(=Nc1ccccc1)/C(C(=O)C(=O)N(C)c1ccccc1)=C(\O)c1ccccc1	1%	?	27%[46.1 µM]	0%	.	9%	.	8%
Cc1noc(C)c1S(=O)(=O)N1CCN(c2ccc([N+](=O)[O-])cc2)CC1	-14%	.	.	1%	.	2%	.	?
CC(C)CC12CN3CCN(CC(C3)C1O)C2 (stereo not drawn)	-5%	?	26%	-5%	-1%	13%	5.0%	2%
COC(=O)c1ccc(N=Cc2c(C(F)(F)F)[nH][nH]c2=O)cc1	-1%	27%[46.1 µM]	15%	1%	.	6%	.	.
COc1ccccc1NC(=O)NCC(=O)Nc1c(C)cccc1C	-5%	-13%	?	-1%	.	-7%	.	3%
CCCC(=O)n1nc(-c2ccco2)nc1SCc1ccccc1	37%[activator]	16%	-10%	-37%	-21%	14%	-7.2%	-29%
Cc1ccccc1OCCn1c(C)nc2ccccc21	-28%	?	-17%[46.1 µM]	1%	.	?	.	-1%
O=C(Cc1ccc([N+](=O)[O-])cc1)Nc1ccc(O)cc1C(=O)O	-15%	?	12%	-1%	-10%	-5%	-0.5%	0%
CCN(CC)C(=O)/C(=C/c1ccc(F)cc1)NC(C)=O	-18%	?	6%	17%	20%	1%	2.2%	8%
COCCc1nn2c(=O)cc(COC(=O)c3ccc(OC)c(OC)c3)nc2s1	-9%	.	-5%[46.1 µM]	.	8%	.	-3.5%	.
Cc1ccc([N+](=O)[O-])cc1NC1OC(CO)C(O)C1O (stereo not drawn)	0%	7%	7%	6%	1%	13%	3.9%	6%
COc1cc(C(=O)Nc2ccc3c(c2)ncn3C)cc(OC)c1OC	16%	.	.	0%	.	-18%	.	20%
CC(C)c1ccc(NC2CCCN(C(=O)c3ccnc(Cl)c3)C2)cc1 (stereo not drawn)	-16%	16%[46.1 µM]	?	-6%	.	11%	.	10%
Cc1ccnc(NC(=O)CCC(=O)N(CC(=O)NC2CCCCC2)c2ccc3c(c2)OCO3)c1	13%	-1%&-1%	-18%	14%	24%	7%	2.9%	22µM*
CC1=CN2C(=N)/C(=C/c3ccc(Sc4ccc(Cl)cc4)o3)C(=O)N=C2S1	0%	0%	-7%	1%	?	-10%	-5.0%	0%
O=C(NNC(=O)c1cccc2ccccc12)c1ccccc1O	0%	.	.	0%	.	22%	.	4%
CCOC(=O)c1ccccc1NC(=O)c1nn(-c2ccc(OC)c(Cl)c2)c(=O)c2c1c1ccccc1n2C	-13%	24%[46.1 µM]	21%[46.1 µM]	.	-7%	.	-1.0%	.
CCCCn1c(SCC(=O)Nc2oc(C)c3c(C)n[nH]c(=O)c23)nc2cc(S(N)(=O)=O)ccc21	7%	-16%	6%	-3%	.	6%	.	.
CC(=O)c1ccc(S(=O)(=O)N2CCN(C(=O)CN3C(=O)NC4(CCCC4)C3=O)CC2)cc1	2%	17%[46.1 µM]	9%	2%	.	-1%	.	.
Cc1cc(F)ccc1S(=O)(=O)Nc1ccc(C(=O)N2CCCCC2)cc1	27%	-23%[46.1 µM]	-18%[46.1 µM]	1%	.	33%	.	.
CC1(C)CSC(=NCCc2ccccc2)N1C(=O)c1ccc(C#N)cc1	-1%	-16%	?	-11%	-12%	-13%	-1.4%	-12%
O=C(N/N=C/c1ccc([N+](=O)[O-])cc1)c1cccc2cc[nH]c12	-4%	13%	0%	2%	.	12%	.	.
CC(Oc1ccc(S(=O)(=O)N2CCCC2)cc1[N+](=O)[O-])C(=O)NC(C)c1ccccc1 (stereo not drawn)	-28%	-2%	9%[46.1 µM]	0%	.	-6%	.	.
Cc1ccc(NC(=S)N2CCC(NC(=O)c3ccc(C)cc3)CC2)cc1	-15%	4%[46.1 µM]	1%	0%	.	6%	.	9%
COc1cc(/C=N/NC(=O)C[n+]2ccccc2)cc(OC)c1OC	-11%	?	0%	10%	14%	-17%	-3.6%	12%
COC(=O)c1cn(NC(=O)Cc2ccc(OC)c(OC)c2)c(=O)c2ccccc12	-5%	2%[46.1 µM]	18%[46.1 µM]	3%	.	3%	.	.
COc1cc(C(=O)NC2CC(C)(C)CC(C)(C)C2)ccc1OC1CCN(C(C)=O)CC1	-20%	.	.	-11%	.	-14%	.	13%
CCc1nc2c(cnn2-c2ccc(C)cc2)c(=O)n1-c1ccc(C)cc1	?	1%[46.1 µM]	-1%[46.1 µM]	.	-10%	.	-9.4%	.
C=CCn1c(CCNC(=O)c2cccs2)nnc1SCC(=O)Nc1cccc(Cl)c1C	-16%	10%	-18%	13%	-3%	-3%	4.6%	1%
CCC(C)NC(=O)c1ccc(-n2c(-c3ccccc3)cc3c2CCCC3)cc1 (stereo not drawn)	12%	.	?	.	4%	.	0.9%	.
CCOC(=O)C1CCN(C(=O)C(C)c2ccc([N+](=O)[O-])cc2)CC1 (stereo not drawn)	-8%	12%[46.1 µM]	28%[46.1 µM]	1%	.	-11%	.	.
Cc1ccccc1OCCCCn1c(C2CC(=O)N(c3ccccc3Cl)C2)nc2ccccc21 (stereo not drawn)	-22%	?	?	.	17%	.	-6.5%	.
O=C1c2ccccc2C(=O)N1CCc1ccccn1	43%[activator]	18%	7%	-5%	1%	1%	-3.1%	-4%
CCOC(=O)c1cc(C#N)c(SCC(=O)c2cc(C#N)c(SC)nc2C)[nH]c1=O	-6%	12%	1%	1%	-13%	2%	-16%	1%
O=C(CN1C(=O)CC(c2ccccc2)S(=O)(=O)c2ccccc21)N1CCCC1 (stereo not drawn)	7%	?	8%	-1%	.	-2%	.	.
Cn1cnnc1Sc1ccc(/C=C/C(=O)c2ccc(O)cc2)cc1[N+](=O)[O-]	?	.	.	0%	.	1%	.	3%
O=C(NCCc1ccccc1)C1CCC(=O)N(CCCN2CCCC2=O)C1 (stereo not drawn)	-8%	.	.	-7%	.	5%	.	-4%
CCOC(=O)N1CCC(NC(=O)C2CCCN(S(C)(=O)=O)C2)CC1 (stereo not drawn)	.	3%	27%	-11%	-4%	9%	-0.2%	-2%
COc1ccccc1C1C=C(c2ccccc2)Nc2nnnn21 (stereo not drawn)	-5%	-15%	-27%	3%	-1%	-10%	-4.5%	-2%
COc1ccccc1CN(C)C(=O)c1cccc(S(=O)(=O)N2CCCc3ccccc32)c1	7%	-41%	?	-3%	.	-7%	.	.
CN1CCN(C(=O)c2ccc3c(c2)N(Cc2c(F)cccc2Cl)C(=O)c2ccccc2S3)CC1	-8%	?	-14%[46.1 µM]	.	-7%	.	6.3%	.
O=C(Cc1ccccc1)NNC(=O)c1ccc(Br)o1	-10%	.	.	-4%	.	11%	.	7%
CC(=O)N1N=C(c2ccncc2)CC1c1ccccc1O (stereo not drawn)	-9%	?	-11%	0%	.	16%	.	-41%
Cc1ccc(C2CC(=O)Oc3cc(O)ccc32)cc1 (stereo not drawn)	-8%	19%	1%	7%	-1%&-9%	-23%	-2.6%&-4.0%	0%
O=C(CSC1=Nc2ccccc2C2=NC(CC(=O)NCc3ccco3)C(=O)N12)NCc1ccco1 (stereo not drawn)	-20%	0%	1%	1%	-5%	4%[3.69 µM]	-2.9%	7.9µM*
COC(=O)c1c(NC(=O)CN2CCOCC2)sc2c1CCC(C)C2 (stereo not drawn)	-19%	?	?	?	?	-21%	-5.3%	-35%
COC(=O)C(C(=O)OC)C(C[N+](=O)[O-])c1ccc(OC)c(OC)c1 (stereo not drawn)	-13%	-36%	-12%	1%	0%	-20%	4.2%	-23%
O=C(NN1C(=O)c2ccccc2C1=O)c1ccc2c(c1)C(=O)N(CC1CCCO1)C2=O (stereo not drawn)	15%	?	11%	-5%	.	0%	.	-1%
COc1ccc2[nH]cc(C3N4CC5(C)CN3CC(C)(C4)C5=O)c2c1 (stereo not drawn)	16%	9%&9%	15%	1%	?	-14%	4.3%	-2%&3%
O=[N+]([O-])c1cc(-c2cnc3ccccc3n2)ccc1Oc1ccc(Cl)cc1	25%	.	.	-6%	-18%	-3%	-8.7%	-3%

The list continues.
SMILES	2A StopGo	Marburg entry inh	LASV entry inh	SARS PLpro yeast	Cruzain noTriton	RE007 growth inh	Cruzain Triton	NS1 function inh
COc1ccc(-c2cn3nc(N4CCCC(C(=O)NCc5ccc(Cl)cc5)C4)sc3n2)cc1 (stereo not drawn)	-23%	.	?	.	-2%	.	14µM*	.
C=CCNC(=O)C1CCC(=O)N1S(=O)(=O)c1ccc(C)cc1 (stereo not drawn)	0%	9%	23%	-4%	.	2%	.	13%
NS(=O)(=O)c1cccnc1Nc1cccc(Cl)c1Cl	61%[activator]	?	21%	.	-1%	3%	-4.4%	-13%
CCN1CCN(c2cc(C)c3cc(NC(=O)c4ccc(Br)o4)ccc3n2)CC1	0%	?	-20%	-3%	-1%	-6%	-11%	-2%
Cc1cc(C)c(S(C)(=O)=O)c(Oc2cccc(C(F)(F)F)c2)n1	-23%	-16%[46.1 µM]	17%	0%	.	-1%	.	6%
CC(=O)O[C@@H]1[C@@H](OC(C)=O)[C@H](n2ccc3cc([N+](=O)[O-])ccc32)OC[C@@H]1OC(C)=O	0%	-23%	6%	.	.	1%	.	.
CCC(Sc1nc(-c2ccccc2F)nc2c1Cc1c(CO)cnc(C)c1O2)C(=O)Nc1cc(C)ccc1C (stereo not drawn)	1%	.	12%[46.1 µM]	.	9%	.	-1.0%	.
CN(C)c1ccc(C(c2ccc(N(C)C)cc2)C(O)c2ccccc2)cc1 (stereo not drawn)	-17%	-5%	6%	.	.	3%	.	.
CC(=O)Nc1ccc(S(=O)(=O)NCCC(=O)Nc2cccc(Cl)c2)cc1	19%	?	.	1%	.	2%	.	5%
